Source: PubChem BioAssay
PABP polyA inh: PABP poly(A) RNA binding inhibitors, primary screen, biochemical, fluorescence polarization, uHTS; Polyadenylate-binding protein 1 (Homo sapiens), P11940; inhibition, % at 35 µM; 290,000 compounds, 1% hits; AID 2014, 2009;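 active means 50% or more with normal probe brightness, or confirmed in later tests; inconclusive means above 50% with abnormal brightness, or retests that disagree; inactive means below 50% or failed in later tests; about a fifth of its hits are not listed in these tables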;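 further: calls also rest on retests at 20 µM and on dose response follow-up; controls were probe without protein and protein plus probe with vehicle; some compounds called inactive have numbers as strong as hits; many hits fall short of the cut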
Target sequence (P11940 whole entry, looked up): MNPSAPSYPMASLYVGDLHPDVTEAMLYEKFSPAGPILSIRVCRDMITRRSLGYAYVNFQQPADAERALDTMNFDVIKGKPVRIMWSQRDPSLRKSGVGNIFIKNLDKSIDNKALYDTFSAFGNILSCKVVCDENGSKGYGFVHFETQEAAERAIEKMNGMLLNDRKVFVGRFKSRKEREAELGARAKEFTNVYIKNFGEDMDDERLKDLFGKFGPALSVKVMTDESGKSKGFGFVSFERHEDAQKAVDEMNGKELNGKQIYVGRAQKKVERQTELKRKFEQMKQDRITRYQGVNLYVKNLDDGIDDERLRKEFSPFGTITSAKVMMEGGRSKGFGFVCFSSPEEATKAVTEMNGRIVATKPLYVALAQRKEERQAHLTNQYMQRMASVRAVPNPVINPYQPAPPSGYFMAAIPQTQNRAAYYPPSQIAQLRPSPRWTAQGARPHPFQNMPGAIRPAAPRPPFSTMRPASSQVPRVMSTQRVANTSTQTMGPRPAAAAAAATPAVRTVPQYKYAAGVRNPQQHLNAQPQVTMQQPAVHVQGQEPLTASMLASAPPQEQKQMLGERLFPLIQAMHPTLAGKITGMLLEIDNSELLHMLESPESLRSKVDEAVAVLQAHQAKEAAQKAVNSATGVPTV
HIV Env fusion: inhibitors of HIV-1 Env-driven cell-cell fusion, primary screen, HeLa-JRFL effector, CEM21 target cells, luciferase | inhibition, % at 12.3 µM | 360,000 compounds, 1.1% hits;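 active means mean replicate inhibition score of at least 50 and every replicate individually at or above 50; inconclusive means only one of the two criteria met; inactive means mean below 50 and not all replicates reaching 50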;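 further: 0% = plate neutral controls and 100% = maraviroc near 300 nM; one replicate is shown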
UUG fidelity: modulators of yeast start codon fidelity, primary screen, whole organism, S. cerevisiae, single point, plate reader. S. cerevisiae UUG-firefly luciferase reporter, luminescence/redox ratio. activity score, % at 18.7 µM. 350,000 compounds, 0.13% hits;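 active means replicate mean at a twofold rise or more, about +100% in these data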;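 further: firefly luciferase made from a UUG start codon reports start codon fidelity; reporter light over untreated wells divided by growth signal over untreated wells; some hits fall short of that in this replicate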
CSC inhib: cancer stem cell viability inhibitors, primary screen, luminescence; cancer stem cell-like cells viability; inhibition, % at 7.5 µM; 300,000 compounds, 1.1% hits; AID 2717, 2010;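 active means mean at 75% or more and at least half the replicates too; inconclusive means mean and replicates disagree; tested in HMLE shEcad cells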;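 further: 0% = median of negative and 100% = median of positive control wells; the first replicate is given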
Rce1 inhib: yeast Rce1p protease inhibitors, primary screen, biochemical, fluorescence, cell-free homogeneous; CAAX prenyl protease 2 (Saccharomyces cerevisiae (strain ATCC 204508 / S288c)), Q03530; yeast membranes, quenched prenylated peptide cleavage fluorescence; AID 2563, 2010; 290,000 compounds, 0.27% hits; calls only;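 active means fall in fluorescence gain of 50% or more versus controls, with final raw signal at or below 3038400; inconclusive means same 50% fall but final raw signal above 3038400; inactive means fall in fluorescence gain under 50%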;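 further: plate controls were neutral control wells for no effect and wells lacking membranes for full effect; tested at 10 µM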
eIF4H FP inh: human eIF4H binding inhibitors, primary screen, translation initiation inhibitor project, biochemical, uHTS, fluorescence polarization; Eukaryotic translation initiation factor 4H (Homo sapiens), Q15056; eIF4H fluorescence polarization binding assay; inhibition, % at 35 µM; 290,000 compounds, 0.94% hits; AID 2012, 2009;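 active means 50% or more with normal probe brightness, or confirmed in later tests; inconclusive means above 50% with abnormal brightness, or retests that disagree; inactive means below 50% or failed in later tests; about a fifth of its hits are not listed in these tables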;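 further: calls also rest on retests at 20 µM and on dose response follow-up; 0% = protein and probe with vehicle and 100% = probe without protein; strong numbers were not always called active; many hits fall short of the cut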
MT1-MMP act inh: blockers of MT1-MMP proenzyme processing, primary screen, HT1080 RFP-PRO-GFP cells, GFP/RFP fluorescence. GFP/RFP ratio change, % at 20 µM. 360,000 compounds, 0.061% hits. GFP/RFP ratio fluorescence, overnight; percent of plate control window, DMSO zero. AID 651647, 2012;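 active means GFP/RFP ratio change of at least 30% with cell ATP level not reduced by more than half and red fluorescence within 50% of control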; further: strong numbers were not always called active
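Material: RFP-PRO-GFP reporter HT1080 cells. Dosing: single-point 20 µM compound, 1% DMSO. Controls: DMSO and RFP-L50D-GFP cell wells. Timing: cells overnight before dosing, compound overnight, 37 °C, 5% CO2. Measure: GFP/RFP fluorescence ratio.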
eIF4H FP inh retest: also measured in eIF4H FP inh; calls as there; inhibition, %; compound at 20 µM; confirmation average;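 mean of two retest wells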
PABP polyA inh retest: further read-out of PABP polyA inh, marked with its call; inhibition, %; compound at 20 µM; confirmation repeats;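 mean of two retest wells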
MT1-MMP act inh RFP: recorded beside MT1-MMP act inh, whose call it bears; RFP signal change, %; measured here: RFP expression control read;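 0 = vehicle wells; hits needed this value within 50% of zero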
The depositor's hits bear a star; i = inactive; u = inconclusive; x = no result given. Not all compounds are listed; the hit share may differ from the screen's.

SMILES	PABP polyA inh	HIV Env fusion	UUG fidelity	CSC inhib	Rce1 inhib	eIF4H FP inh	MT1-MMP act inh	MT1-MMP act inh RFP	others
COc1cc(-c2nnc(SCC(=O)c3ccc(C)cc3)o2)cc(OC)c1OC	-2	x	-12	-10	i	-15	8	-2
COc1cccc(C2CC(c3ccccc3Cl)n3nc(N)nc3N2)c1 (configuration not stated)	2	-33	-20	-11	i	1	6	4
CC(C)(C)OC(=O)NCCc1nnc(SCC(=O)Nc2ccc(Br)cc2)o1	0	-1	-3	-4	i	-8	4	-2
Cc1ccc(S(=O)(=O)NC(=O)NCCc2ccccc2)cc1	5	2	x	-9	i	-4	-4	-1
Cc1cc(N/N=C/c2ccc([N+](=O)[O-])o2)nc2ccccc12	-1	-8	x	3	i	53	-41	10	eIF4H FP inh retest=-6;PABP polyA inh retest=2
CCN(CC)S(=O)(=O)c1ccc(N2CCOCC2)c(NS(=O)(=O)c2cccs2)c1	x	x	-7	-17	x	x	-3	0
CCOCCCNCc1ccc(OCc2ccc(F)cc2)c(OC)c1	-2	-9	34	22	i	-1	-4	-2
C=CCc1cc(C(=O)N2CCCCC2)ccc1O	-2	u	-15	2	i	-11	-6	-9
Cc1cccc(NS(=O)(=O)c2ccc(C(=O)N3CCCCCC3)cc2)c1C	x	x	13	x	i	x	1	-11
COc1ccc(C(=O)ON=C2CCN(C)CC2)cc1	-2	13	x	-14	i	-4	1	4
COc1ccc(OCc2nnc(SCC(N)=O)n2-c2ccccc2OC)cc1	4	-41	-11	-4	i	2	1	9
CC1=C(C#N)C(c2cccnc2)C2=C(CC(c3ccc(Cl)cc3)CC2=O)N1 (configuration not stated)	16	x	-3	-1	i	3	2	-4
CCOC(=O)N1CCN(C(=O)c2sc3nc(-c4ccc(F)cc4)cn3c2C)CC1	-1	6	-21	1	i	0	1	-7
COc1cc2c(cc1OC)CN(C(=O)CCNC(=O)c1ccc(Br)cc1)CC2	x	4	-1	x	x	x	0	0
O=C(N[C@@H](Cc1ccccc1)C(=O)Nc1ccc(F)cc1)C1CCNCC1	1	3	-14	-10	i	8	-2	1
CCc1cccc(NC(=S)N(CCOC)C2CCN(C(C)=O)CC2)c1	10	-3	-26	-13	i	-2	2	3
CC(=O)Nc1cccc(-c2ccnc3c2CC(C(=O)NCc2ccc(N(C)C)cc2)O3)c1 (configuration not stated)	x	34	-20	x	x	x	4	-10
CCN(c1ccc(OC)cc1)S(=O)(=O)N1CCCC(C(=O)NC(C)c2ccccc2)C1 (configuration not stated)	x	-14	-1	x	x	x	7	3
Cc1ccccc1OCCNc1cc(N2CC(C)NC(C)C2)ccc1[N+](=O)[O-] (configuration not stated)	-12	-6	-8	x	i	-13	-5	-1
CC1CN(Cc2ccccn2)CCC1=O (configuration not stated)	-14	-11	x	-7	i	3	2	2
O=C(Nc1cccc(C(F)(F)F)c1)c1ccc(-n2cncn2)nc1	9	-42	x	5	i	-8	1	-2
CCCCn1c(-c2ccoc2C)n[nH]c1=S	u	-18	-22	3	i	0	5	4
CCOc1ccc(C(=O)OCn2nnc3ccccc3c2=O)cc1OC	-4	x	-19	0	i	3	-5	-2
c1ccc(CCNc2nc3ccccc3s2)cc1	3	-86	-30	15	i	-2	0	6
CCc1ccc(OCCCOc2ccc(C=O)cc2)cc1	4	x	-18	13	x	-4	3	-13
O=C(CCNC(=O)c1ccccc1Cl)Nc1ccc(S(=O)(=O)N2CCOCC2)cc1	x	7	-7	x	x	x	2	5
CN(CC(=O)Nc1ccc(Cl)c(C(F)(F)F)c1)C(=O)C1CC(=O)N(c2ccc3c(c2)OCCO3)C1 (configuration not stated)	x	37	9	x	x	x	-1	-9
COc1ccc2oc(=N)c(-c3nnc4n3CCCCC4)cc2c1	-5	-4	-19	-17	i	-2	1	3
C[C@H](NC(=O)[C@@H]1Cc2ccccc2CN1)C(=O)Nc1ccc2c(c1)OCCO2	8	6	x	11	i	5	0	3
COc1cc(OC)c2c(N)c(C#N)c(C(F)(F)C(F)(F)F)nc2c1	-10	x	-17	-1	i	-2	0	-7
Cc1c(C(=O)N2CCCC2)oc2c1-c1nn(CC(=O)NCCCN3CCCCC3)cc1CC2	7	-7	x	-2	i	2	-91	-67
CC(C)C(c1nnnn1C1CCCC1)N1CCOCC1 (configuration not stated)	10	-6	-20	1	i	-2	-2	3
Cc1nc2c(cc1C(=O)N/N=C/c1ccc([N+](=O)[O-])cc1)c(=O)n(C)c(=O)n2C	1	-6	x	-2	i	3	2	3
CN(C(=O)c1ccc(NC(=O)Cc2ccc(NC(=O)C3CCCN(C(=O)C4CCC4)C3)cc2)cc1)C1CCCC1 (configuration not stated)	x	2	4	x	x	x	5	0
CN(C)CCN(Cc1ccco1)S(=O)(=O)c1ccc(-c2ccc(=O)[nH]n2)s1	8	-3	-18	11	i	-1	-5	1
Cc1cc(C)n(-c2c(C)[nH]c3ccccc23)n1	9	5	x	-18	i	11	3	-5
CCOCCCNC(=O)c1[nH]c(C)c(C(C)=O)c1C	0	-32	-9	-4	i	5	x	x
CC(C)[C@H](NC(=O)c1ccccc1F)C(=O)Nc1nc2c(s1)CCCC2	1	-13	x	2	i	-8	0	2
N#Cc1c(N)nc2c(c1-c1ccncc1)CCCCCC2	x	3	-9	-1	i	x	-3	-2
CCOCc1c(C(=O)OCC(=O)NCc2ccc(F)cc2)oc2ccccc12	x	3	-3	x	x	x	-2	3

Ordered by heavy-atom count (ascending): three of the compounds above.
SMILES	PABP polyA inh	HIV Env fusion	UUG fidelity	CSC inhib	Rce1 inhib	eIF4H FP inh	MT1-MMP act inh	MT1-MMP act inh RFP	others
CCOCCCNC(=O)c1[nH]c(C)c(C(C)=O)c1C	0	-32	-9	-4	i	5	x	x
CCOc1ccc(C(=O)OCn2nnc3ccccc3c2=O)cc1OC	-4	x	-19	0	i	3	-5	-2
C[C@H](NC(=O)[C@@H]1Cc2ccccc2CN1)C(=O)Nc1ccc2c(c1)OCCO2	8	6	x	11	i	5	0	3

(next part)
SMILES	PABP polyA inh	HIV Env fusion	UUG fidelity	CSC inhib	Rce1 inhib	eIF4H FP inh	MT1-MMP act inh	MT1-MMP act inh RFP	others
CCOc1ccc(CCNC(=O)c2nnc(CS(=O)(=O)c3ccccc3)o2)cc1OCC	10	-30	-7	-2	i	-7	3	4
COc1ccc(S(=O)(=O)N2CCC(C(=O)NC3CC3)CC2)cc1C	19	-20	-1	-12	x	3	1	4
COc1ccc(-c2c(C)n([O-])c3c([n+]2=O)CCC3)cc1OC	10	-4	-23	-10	i	1	0	4
CC1(C(=O)Nc2ccc3c(c2)OCCO3)CCN1Cc1ccc(-c2ccccn2)cc1 (configuration not stated)	x	7	-10	x	x	x	2	-3
Cc1ccc(-c2nc(N)s[n+]2-c2ccccc2)cc1	7	-25	x	1	i	4	-3	-3
CCOc1ccc(NC(=O)C(=O)N/N=C\c2ccc(CNS(=O)(=O)c3ccccc3)o2)cc1	10	0	-18	18	i	9	3	6
CC(NC(=O)/C=C/c1ccco1)c1nc2ccccc2n1Cc1cccc(Cl)c1 (configuration not stated)	3	-16	x	28	i	8	-10	-9
O=C(NCC(=O)N1CCOCC1)OCc1ccccc1	6	24	3	0	i	0	-4	3
O=C(CSc1nnc(-c2cccnc2)s1)Nc1ccc(C(=O)O)cc1	4	x	x	-3	i	15	1	-1
CCOc1ccc(-c2nnc(NC(=O)Cc3ccc(OC)cc3)o2)cc1	11	-10	-1	9	i	9	-3	-3
O=C(Cc1c(Cl)cccc1Cl)OCC(=O)N1CCN(C(=O)c2ccco2)CC1	13	-5	x	-8	i	-1	2	3
O=C(Nc1ccc(Br)c(Cl)c1)c1ccco1	-7	-174	-15	11	i	-2	-1	-4
CCOC(=O)C1=CN(Cc2cccc(F)c2)S(=O)(=O)N(C)C1c1ccc2ccccc2c1 (configuration not stated)	x	24	4	x	x	x	-2	-10
CSc1ccccc1Sc1cc(C(=O)O)c2ccccc2n1	-8	13	-2	x	i	-4	4	1
O=C(NCc1cccnc1)c1cc(C2CCCN(C(=O)CCCc3ccccc3)C2)on1 (configuration not stated)	x	-18	-3	x	x	x	0	-11
COc1ccc(Nc2cc(=O)n(-c3ccccc3)c3c2c(=O)n(C)c(=O)n3C)cc1	-8	0	0	-3	i	-10	18	-7
CCOC(=O)c1c(C)[nH]c(C)c1S(=O)(=O)NC(CC)CN1CCOCC1 (configuration not stated)	64*	-4	-11	-5	i	94*	0	7
COc1ccc(C)cc1-n1c(SCC(=O)Nc2cccc(C(=O)O)c2)nc2ccccc2c1=O	2	1	x	-35	i	-1	-2	-2
Cc1cc(Cl)ccc1OCC(=O)NCCCCc1ccccc1	1	15	3	-3	i	2	3	-5
CCCCCn1c(=O)[nH]c2cc(C(=O)Nc3ccc(OC)cc3)ccc2c1=O	2	x	-10	-5	i	-14	6	4
O=c1c2ccccc2n(Cc2ccc(Cl)cc2)c(=O)n1Cc1ccco1	-8	x	-8	-8	i	2	-8	-5
COc1ccc2c(c1)C(=NN)c1cc(OC)ccc1-2	15	-146	-6	24	i	-9	10	2
O=C(Cn1c2ccccc2c(=O)c2ccccc21)N/N=C/c1cc([N+](=O)[O-])ccc1N1CCCCCC1	-15	-25	-16	-3	i	35	7	3
O=C(N/N=C/c1cccc([N+](=O)[O-])c1)c1cnccn1	-5	x	-6	1	i	-3	-13	-3
O=C(NCc1ccccc1Cl)C(=O)c1cn(CC(=O)N2CCOCC2)c2ccccc12	27	7	-8	-6	i	47	x	x
COc1ccc(CC(=O)OCCc2cc3cc(OC)c(OC)cc3c(=O)o2)cc1	x	14	1	19	x	x	2	2
Cc1ccc(/C(O)=C2\C(=O)C(=O)N(CCN(C)C)C2c2ccccc2F)cc1 (configuration not stated)	2	-28	-6	-17	i	-13	-1	2
CN(C)C(CNS(=O)(=O)c1ccc(Cl)cc1F)c1ccco1 (configuration not stated)	x	5	-19	-17	x	x	0	3
N#Cc1ccc(CSCC(=O)NN=C2CCCC2)cc1	5	8	6	-1	i	12	0	0
COc1cccc([C@@H]2Oc3ccc(OC)cc3C(=O)[C@H]2OC(=O)Nc2cc(OC)c(OC)c(OC)c2)c1	-4	x	x	-19	x	-10	x	x
CSCCC(=O)N1CCCC(CO)(CCCc2ccccc2)C1 (configuration not stated)	-5	-7	-8	5	i	-3	4	2
COc1ccc(Oc2c(C)oc3c(CN4CCOCC4)c(O)ccc3c2=O)cc1	1	x	x	-16	i	8	-2	0
O=C(Nc1ccc(F)cc1F)N1CCCCC1c1cccnc1 (configuration not stated)	0	-12	3	-8	i	7	3	6
Cc1cc(C)nc(NS(=O)(=O)c2ccc(NC(=S)NC(=O)c3ccco3)cc2)n1	3	0	x	-3	i	4	-9	0
CCOc1ccc(NC(=O)CCSc2nc3c(c(CC)c2C#N)C(=O)CC(C)(C)C3)cc1	-16	x	-11	28	i	-7	1	-1
O=C(Nc1ccc(N2CCN(C(=O)c3ccco3)CC2)c(Cl)c1)c1cccs1	3	x	10	19	i	-2	4	-7
Cc1cc(OC(=O)c2cccc([N+](=O)[O-])c2)c(C)cc1CN1CCOCC1	-8	7	-3	-8	i	-5	1	4
